Screens: PubChem BioAssay, Johns Hopkins Ion Channel Center
KCNQ2 block – KCNQ2 potassium channel inhibitors, primary screen, cell-based, CHO-K1, FluxOR thallium flux, B-score (AID 2156); 20 min; stronger effect = lower value; only compounds with negative scores are shown here; some inactives read as strong as hits; hit rate 1.1% among 310,000; O88943; B-score at 10 µM;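 active means fluorescence ratio B-score at most minus 3 library SDs, with starting brightness B-score within 2 library SDs, cut at about -5.5 in these data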
Target sequence (O88943 whole entry, looked up): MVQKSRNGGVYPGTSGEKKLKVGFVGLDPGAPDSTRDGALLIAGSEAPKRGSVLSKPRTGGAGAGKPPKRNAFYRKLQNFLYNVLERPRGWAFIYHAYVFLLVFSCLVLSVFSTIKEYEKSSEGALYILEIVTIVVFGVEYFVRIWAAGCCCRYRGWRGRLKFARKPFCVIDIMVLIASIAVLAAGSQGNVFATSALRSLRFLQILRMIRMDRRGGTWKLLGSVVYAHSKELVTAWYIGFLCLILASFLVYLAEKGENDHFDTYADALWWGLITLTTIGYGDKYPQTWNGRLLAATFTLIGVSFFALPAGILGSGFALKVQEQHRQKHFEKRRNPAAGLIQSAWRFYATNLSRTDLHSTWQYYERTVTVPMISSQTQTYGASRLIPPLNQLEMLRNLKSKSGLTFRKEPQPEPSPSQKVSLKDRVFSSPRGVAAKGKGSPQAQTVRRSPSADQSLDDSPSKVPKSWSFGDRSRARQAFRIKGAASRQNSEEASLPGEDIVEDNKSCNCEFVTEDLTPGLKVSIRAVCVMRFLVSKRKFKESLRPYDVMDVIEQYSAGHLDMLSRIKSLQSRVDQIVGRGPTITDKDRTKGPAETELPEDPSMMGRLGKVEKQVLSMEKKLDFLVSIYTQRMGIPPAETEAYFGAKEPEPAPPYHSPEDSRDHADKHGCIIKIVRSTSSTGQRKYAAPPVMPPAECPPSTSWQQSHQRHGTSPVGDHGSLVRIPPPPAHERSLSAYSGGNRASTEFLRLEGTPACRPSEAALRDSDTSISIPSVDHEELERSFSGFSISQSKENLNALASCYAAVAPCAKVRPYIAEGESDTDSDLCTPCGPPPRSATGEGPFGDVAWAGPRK
KCNQ2 block baseline – further read-out of KCNQ2 block, marked with its call; B-score; measured here: initial fluorescence intensity artifact check;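 brightness before thallium and not channel activity; 0 = typical well and far values either way flag optical interference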
* = called active by the depositor; i = inactive. These rows are one share of the data, so the mix of outcomes need not match the whole.

SMILES	KCNQ2 block	KCNQ2 block baseline
COc1cccc2cc(C(=O)N3CCCCC3C)c(=O)oc12 (stereo not drawn)	i	0.7
Cc1cc(C)c2c(NC(N)=S)n[nH]c2n1	i	0.4
O=C(NCCCCc1ccccc1)c1cc([N+](=O)[O-])cc([N+](=O)[O-])c1	i	-0.05
CC(C)(C)NC(=O)C1CC(=O)N(CCc2ccc(F)cc2)C1 (stereo not drawn)	i	-0.44
O=C(CSC1=Nc2ccccc2C2=NC(Cc3c[nH]c4ccccc34)C(=O)N12)NC1CCCCC1 (stereo not drawn)	i	-1.5
Cc1nc(C(=O)NCCC(C)C)sc1C1(C)CC(c2ccccc2)=NO1 (stereo not drawn)	i	-2.3
COC(=O)NCC(c1cccnc1)N1CCN(c2ccccc2OC)CC1 (stereo not drawn)	i	2.6
O=C(c1ccco1)N1CCN(C(=O)c2ccc(CS(=O)c3ccc(F)cc3)o2)CC1 (stereo not drawn)	i	0.12
COC(=O)C(Cc1ccccc1)NC(=S)NC(=O)c1ccccc1 (stereo not drawn)	i	1.1
CN(C)/C(=N\OC(=O)c1ccccc1)c1nonc1N	i	0.88
CCOc1ccc(S(=O)(=O)Nc2ccc(C(=O)NNC(=O)c3ccncc3)cc2)cc1	i	-0.07
CN(C)n1cnc2ccsc2c1=O	i	-0.02
O=c1c2sccc2n(Cc2cccc(F)c2)c(=O)n1-c1ccc(F)cc1	i	0.69
COc1ccc2c(O)c(-c3c(C)cc(C)cc3C)c(=O)[nH]c2c1	i	0.97
O=C(NNc1cccc(Cl)n1)C(F)(F)F	i	0.16
O=C(CCS(=O)(=O)c1ccc(Cl)cc1)NCCc1c[nH]c2ccccc12	i	-0.55
Cc1ccc(-c2nnc(-c3cccc(Br)c3)o2)cc1	i	-1.6
Cc1nc2c(C(=O)NCc3ccco3)cnn2c(C)c1Cc1ccc(F)cc1Cl	i	0.62
Cc1c(Cl)c(-c2n[nH]c(=S)n2-c2ccccc2)nn1C	i	2.9
O=c1c2ccccc2nc2n1CCC2	i	0.13
O=C(c1ccco1)N(Cc1nc2ccccc2c(=O)[nH]1)C1CCCC1	i	-1.1
CSCC[C@H](NC(=O)OC(C)(C)C)C(=O)N1CCC(C(=O)N[C@@H](C)C(=O)NC(C)c2ccccc2)CC1 (stereo partly drawn)	i	-0.76
CCCCOC(=O)c1ccc(NC(=O)C(CCS(C)(=O)=O)NC(C)=O)cc1 (stereo not drawn)	i	-0.3
CC(=O)N1CCC(=NNC(=O)c2cc3ccccc3cc2O)CC1	i	0.3
O=C(COC(=O)c1ccco1)Nc1nc2c(F)c(F)c(F)cc2s1	i	-0.54
SMILES	KCNQ2 block	KCNQ2 block baseline
NC(=O)C1CCN(C(=O)c2cc3ccccc3cc2O)CC1	i	0.28
Cc1cc(C)cc(NC(=S)NCC2CCN(C(C)c3ccccc3)C2)c1 (stereo not drawn)	i	-1.9
CCn1c(CC(=O)Nc2ccc(Cl)c(Cl)c2)nnc1SCc1ccc(Cl)cc1	i	0.43
N#Cc1c(C#N)c(O)c2ccccc2c1O	i	0.83
Cc1ccc2c(c1)C1CN(C)CCC1N2C(=S)Nc1ccc(Cl)cc1Cl (stereo not drawn)	i	1
O=C(Nc1nc(-c2ccc(F)c(F)c2)cs1)Nc1ccc(F)cc1F	i	0.79
O=C(NN1CCOCC1)c1ccccc1	i	2.5
CC(=O)N1c2ccccc2CCc2ccc([N+](=O)[O-])cc21	i	-0.1
O=c1[nH]c(-c2cccs2)nc2ccccc12	i	-0.87
Cc1nc(C(F)(F)F)c(C(=O)N=CN(C)C)s1	i	1.3
COc1ccc(Br)cc1/C=N/Nc1ccccn1	i	-0.34
CCOC(=O)C(Cc1ccccc1)NC(=O)CCCC(=O)c1ccccc1 (stereo not drawn)	i	0.86
CCC(=O)Nc1ccc(/C=C(\C(C)=O)C(=O)c2ccccc2)cc1	i	-0.89
CC(C)(C)C(=O)N1CCN(CCN2C(=O)c3cccc4cccc(c34)C2=O)CC1	i	-2.1
Clc1ccc(CN2CCCCCCC2)cc1Cl	i	-0.24
CCOC(=O)c1c(C)[nH]c(C)c1S(=O)(=O)N(C)CC(=O)NCc1cccc(C)c1	i	-0.1
Cc1ccc(N=c2c([N+](=O)[O-])nn(-c3ccc4c(c3)OCCO4)n2O)c(Cl)c1	i	-0.01
c1ccc(N=P(N2CCOCC2)(N2CCOCC2)N2CCOCC2)cc1	i	0.16
O=C(CN1C(=O)C2CCCCN2C(=O)c2ccccc21)N1CCCc2ccccc21 (stereo not drawn)	i	-0.95
COc1ccc(NC(=S)N(CCN(C)C)C(C)c2ccco2)cc1 (stereo not drawn)	i	2
CS(=O)(=O)N(CC(=O)N/N=C/c1ccccc1C(=O)O)c1cccc(Cl)c1Cl	i	0.43
Cc1csc(NC(=O)c2cccc(Cn3nc(C)c(Br)c3C)c2)n1	i	-0.51
Cc1coc(C)c1C(=O)CC1(O)C(=O)N(C)c2ccc(Cl)cc21 (stereo not drawn)	i	0.42
CCOC(=O)c1sc(SCc2ccccc2)c2c1CC(C)(C)CC2=O	i	0.21
Cc1ccc(/C=C2/NC(=O)N(c3ccccc3)C2=O)o1	i	0.03
SMILES	KCNQ2 block	KCNQ2 block baseline
COCC(C)NC(=O)c1cc2cc(OC)ccc2[nH]1 (stereo not drawn)	i	0.8
Cc1cc([N+](=O)[O-])cc2c1NC(=O)C2(O)N1CCCC(C)C1 (stereo not drawn)	i	0.54
Cc1cc(C)c(NC(N)=S)c(C)c1	i	-0.18
CCOc1ccc(CCNC(=O)COC(=O)COc2ccccc2C)cc1OCC	i	1.3
Cc1cccc(NC(=O)c2cc3c(n(-c4ccccc4)c2=O)CCCC3=O)n1	i	0.02
O=C(Nc1ccccc1)N1CCn2c(nc3ccccc32)C1	i	1.1
Cc1cc(=O)[nH]c(SCc2ccccc2)n1	i	1.4
CCOC(=O)c1c(-c2ccc(OC)cc2)oc2ccc(OCC(N)=O)cc12	i	0.55
CN1CCN(S(=O)(=O)c2cccc(C(=O)Nc3cc(C(F)(F)F)ccc3N3CCCC3)c2)CC1	i	0.06
CCOC(=O)Cn1nc(C)c(NC(=O)COc2ccc([N+](=O)[O-])cc2)c1C	i	0.17
CCOC(=O)c1c(NC(=O)Cn2cnc([N+](=O)[O-])n2)sc2c1CCC(C)C2 (stereo not drawn)	i	0.82
CCOC(=O)Cn1c(CN2CCN(C(c3ccccc3)c3ccccc3)CC2)nc2c1c(=O)n(C)c(=O)n2C	i	0.4
CCOC(=O)c1c(C)oc2c1c(C(c1cccnc1)N1CCOCC1)c(O)c1ccccc12 (stereo not drawn)	i	-1
O=c1oc2ccccc2c(NCc2ccccc2)c1[N+](=O)[O-]	i	-1.4
CN(CC1CCCN(CCc2ccc(Cl)cc2)C1)C(=O)C(=O)c1ccco1 (stereo not drawn)	i	-0.38
Cc1[nH]c2c(C)cccc2c(=O)c1Br	i	-1.2
O=C1OC(c2ccccc2)c2ccc3ccccc3c21 (stereo not drawn)	i	1.4
CCCCn1c(SCC(=O)NC(C)CC)nc2ccc(N3CCOCC3)cc2c1=O (stereo not drawn)	i	0.73
Cc1ccccc1NC(=S)NC(NC(=O)N(C)C)C(Cl)(Cl)Cl (stereo not drawn)	i	0.6
CCOC(=O)c1cccc(NC(=O)CSc2nnnn2CC)c1	i	0.2
Cc1ccc(Cn2c(CN3CCN(C(=O)c4ccco4)CC3)nc3c2c(=O)n(C)c(=O)n3C)cc1	i	-0.45
CCC(C)N(CCNC(=O)c1ccc2c(c1)NC(=O)c1ccccc1S2)C1CCCCC1 (stereo not drawn)	i	-1.6
COc1ccccc1C(=O)ON=C1c2ccccc2-c2ccccc21	i	0.62
COc1ccc(CCN(C)C(=O)CN2C(=O)NC3(CCCc4ccccc43)C2=O)cc1OC (stereo not drawn)	i	1.4
Nc1nc(SCC(=O)NCCCO)nc2sc3c(c12)CCC3	i	-0.01
SMILES	KCNQ2 block	KCNQ2 block baseline
Cc1ccccc1OCC(=O)Nc1ccc2c(c1)OCCO2	i	-0.26
CC1OC(Oc2c(-c3cc(O)c(O)c(O)c3)oc3cc(O)cc(O)c3c2=O)C(O)C(O)C1O (stereo not drawn)	i	0.16
O=[N+]([O-])c1ncn(Cc2c(Cl)cccc2Cl)n1	i	-0.36
CC(=O)Nc1cccc(N(C)S(C)(=O)=O)c1	i	0.47
O=C(O)CC1(CC(=O)NCc2cccc(Cl)c2)CCCCC1	i	-0.44
Clc1ccc(CSc2nnc(-c3c[nH]c4ccccc34)o2)cc1	i	-0.76
O=C(N/C(=C\c1cccc([N+](=O)[O-])c1)C(=O)N1CCOCC1)c1ccco1	i	2.3
CCCCc1ccc(NC(=S)N2CCN(c3ncccn3)CC2)cc1	i	0.4
Cc1cccc(-c2nc3c(c(SCC(N)=O)n2)CCCC3)c1	i	1.3
Cc1ccc(C(C(=O)NC(C)(C)C)N(Cc2ccco2)C(=O)Cn2nnc(-c3cccs3)n2)cc1 (stereo not drawn)	i	0.18
CCCCCc1cc(=O)oc2c(C(CCN3CCCCC3)c3cc(OC)c(OC)c(OC)c3)c(OC)cc(OC)c12 (stereo not drawn)	i	-0.06
COc1ccc2nc3c(c(-c4ccccc4)c2c1)CCC3	i	-3.6
CC1CCCN(c2c([N+](=O)[O-])c(=O)oc3ccccc23)C1 (stereo not drawn)	i	-2.4
O=c1[nH]ncc(N2CCCCC2)c1Cl	i	0.33
COc1ccc(CNC(=O)C2CCCN2S(=O)(=O)c2ccc(Cl)cc2)cc1 (stereo not drawn)	i	0.34
Cc1cc(C)c(S(=O)(=O)N2CCN(c3ccc([N+](=O)[O-])c(-n4nc(C)cc4C)c3)CC2)c(C)c1	i	0.8
CC(C)[C@@H]1CC[C@@H](C)C[C@H]1OC(=O)C[n+]1cc(-c2ccc(Cl)cc2)n2c1CCCCC2	i	-0.05
COc1ccc(Nc2cc(C(=O)NCCCN3CCOCC3)c3ccccc3n2)cc1OC	i	0.34
CCCCCn1c(-c2ccco2)nc2nc3ccccc3nc21	i	-0.44
Cc1ccc(C(=O)COC(=O)c2cn(-c3ccccc3)nc2-c2ccccc2)cc1[N+](=O)[O-]	i	0.32
COc1cccc(OC)c1NC(=O)C1CCCN1C(=O)Nc1cccc(Cl)c1 (stereo not drawn)	i	-0.03
CCOCCCNC(=O)c1ccc2c(c1)ncn2-c1cccc(C)c1	i	-0.11
C=CCNC(=O)N1CCCC(C(=O)c2cccc(Cl)c2)C1 (stereo not drawn)	i	0.67
Cc1cc(Br)ccc1NC(=S)NCCc1ccccc1	i	-0.53
O=C(NC(=S)NCc1ccco1)c1cccc(Cl)c1	i	0.76
SMILES	KCNQ2 block	KCNQ2 block baseline
CC(C)c1ccc(NC(=S)NC2CC3C=CC2C3)cc1 (stereo not drawn)	i	-2.2
Cc1ccc(OC(C)C(=O)Nc2ccccc2C(=O)N2CCN(C)CC2)cc1 (stereo not drawn)	i	1.2
CCOc1ccc(NC(=O)CC2S/C(=N/N=C3CCCCCC3)NC2=O)cc1 (stereo not drawn)	i	-0.01
COc1ccc(C(=O)CCN2CCCC(C)C2)cc1 (stereo not drawn)	i	-1.9
Cc1nc(-c2ccccc2)sc1-c1nc(-c2ccccc2)ncc1S(=O)(=O)c1ccccc1	i	1.7
Cc1cc(-c2ccc(S(=O)(=O)N3CCN(C)CC3)s2)on1	i	0.09
Cc1noc(C(=O)Nc2c(C)nn(Cc3ccccc3)c2C)c1Cl	i	0.44
O=C(C1CCN(c2nc(-c3ccccc3)nc3c2CCC3)CC1)N1CCCC1	i	1.4
CCCCCc1c(C)nc(N2CCc3ccccc3C2)[nH]c1=O	i	1.7
COc1cc(NC(=O)c2sc3ncn(CC(=O)N4CCC(C)CC4)c(=O)c3c2C)cc(OC)c1OC	i	-0.39
O=C(Nc1cnn(Cc2ccc(Cl)cc2)c1)c1ccc([N+](=O)[O-])cc1	i	-0.15
C=CCNC(=O)[C@H]1N2C(=O)c3ccccc3C2SC1(C)C (stereo partly drawn)	i	0.66
CCc1cc(C(=O)OC)c(NC(=O)CC2Nc3cc(C)c(C)cc3NC2=O)s1 (stereo not drawn)	i	2.4
O=C(CSc1nc2ccccc2c(=O)n1-c1ccc(F)cc1)Nc1ccc(Cl)c(S(=O)(=O)N2CCOCC2)c1	i	-0.21
COc1cccc(CN2CC(C(=O)NCCSc3nnnn3C)CCC2=O)c1 (stereo not drawn)	i	-1.4
